gsp agonist: agonists of gsp mutant (McCune-Albright syndrome) | Potency, µM (doses to about 76.9 µM), for inactives: top-dose activation (cAMP increase), most hits filed as activators | gsp mutant cells, cAMP HTRF, 30 min; control for the full effect not named in the record | 340,000 compounds, 0.13% hits | AID 624287; active = well fitted activation curve with a large enough effect; inconclusive = small, poorly fitted or top-dose-only effect, or another doubt; inactive = no such curve, though single readings can be large or run the other way; cell line not stated here;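 note: phosphodiesterase inhibitor Ro 20-1724 added with compounds to block cAMP breakdown; potency is the fitted concentration of half-maximal effect; nearly all actives have a fitted effect of over 60% in size; about a fifth of the inactives were tested at one dose only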
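Cells in DMEM/10% FBS with G418 were pretreated with compounds in DMSO plus […] (300 uM stock) for 30 min at 37C. cAMP was measured by HTRF (cAMP-d2 plus anti-cAMP antibody-K) after 30 min at room temperature.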
Menin MLL FP FL: menin-MLL binding inhibition, fluorescein peptide; FP activity change, % at 61.4 µM; Fluorescence polarization, fluorescein-MLL peptide displacement from menin; 290,000 tested, under 10 active; inconclusive = falling polarisation curve, or a change in total fluorescence; inactive = total fluorescence flat and polarisation flat or rising; no compound was filed as active; the % refers to the polarisation; negative = inhibition;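 note: % of control where 0% means no effect; inhibitors lower the polarisation; unlabelled MLL peptide was the positive control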
ClpP mod: qHTS Assay for Activators of ClpP; Potency, µM (highest dose often 57.5 µM), for the others: at the top dose activity change, negative = active; purified B. subtilis ClpP, FRET peptide cleavage, 20 min; ATP-dependent Clp protease proteolytic subunit (Bacillus subtilis (strain 168)), P80244; 340,000 compounds, 1.9% hits; active = well fitted falling curve with a large enough effect; inconclusive = small, poorly fitted or top-dose-only effect; inactive = no such curve, though single readings can be large or run the other way; note: potency is the fitted concentration of half-maximal effect; the source files actives as falling curves though it sought activators and does not explain the sign; nearly all actives have a fitted effect of over 65% in size; many hits overshoot -100%
Target sequence (P80244 whole entry, looked up): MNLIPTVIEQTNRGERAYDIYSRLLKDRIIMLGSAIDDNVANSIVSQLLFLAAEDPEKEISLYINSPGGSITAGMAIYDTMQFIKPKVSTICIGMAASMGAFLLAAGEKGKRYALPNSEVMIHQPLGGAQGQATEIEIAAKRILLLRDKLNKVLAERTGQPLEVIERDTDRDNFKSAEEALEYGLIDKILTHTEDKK
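Buffer: 100 mM Tris/HCl pH8, 100 mM KCl, 0.05% low protease BSA, 2.5% glycerol, 0.01% Tween-20. ClpP 10 microg/mL final; 20 min RT; delta FRET normalized to ADEP and DMSO controls.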
gsp antag: gsp mutant antagonism; gsp-mutant cells, cAMP HTRF, 30 min; control for the full effect not named in the record; Potency, µM (top dose mostly 76.9 µM), for inactives: top-dose activity change, negative = inhibition, most hits filed as inhibitors; 340,000 compounds, 0.4% hits; active = falling curve of any shape with a large fitted effect; inconclusive = falling curve, mostly with a smaller effect; inactive = flat or rising curve; cell line not stated here;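 note: intracellular cAMP measured with PDE inhibitor Ro 20-1724 present during compound exposure; potency is the fitted concentration of half-maximal effect; % is set by controls: 0 for no effect and ±100 for the full control effect; nearly all actives have a fitted effect of over 65% in size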
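HTRF cAMP read-out (cAMP-d2 plus anti-cAMP antibody-K in lysis buffer, 30 min RT). Before lysis, cells are exposed to compounds with […] for 30 min at 37C in DPBS containing Ca/Mg, BSA and Tween 20.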
TRPML1 blocker: human mucolipin-1 channel inhibition | TRPML1-inducible cells, Ca2+ dye fluorescence, FDSS; hits give low values; inhibition of EC80 agonist-evoked calcium signal | activity change, negative = inhibition, % (concentration not given with the values) | 390,000 compounds, 0.02% hits; in the data active means activity change below about -50%; inconclusive means about -30% to -50%; inactive means above about -30%;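 note: stimulus is agonist 54-4 at its EC80 concentration; % is set by controls: 0 for no effect and ±100 for the full control effect; the text of the record puts the active cut at -80%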
Target sequence (Q9GZU1 whole entry, looked up): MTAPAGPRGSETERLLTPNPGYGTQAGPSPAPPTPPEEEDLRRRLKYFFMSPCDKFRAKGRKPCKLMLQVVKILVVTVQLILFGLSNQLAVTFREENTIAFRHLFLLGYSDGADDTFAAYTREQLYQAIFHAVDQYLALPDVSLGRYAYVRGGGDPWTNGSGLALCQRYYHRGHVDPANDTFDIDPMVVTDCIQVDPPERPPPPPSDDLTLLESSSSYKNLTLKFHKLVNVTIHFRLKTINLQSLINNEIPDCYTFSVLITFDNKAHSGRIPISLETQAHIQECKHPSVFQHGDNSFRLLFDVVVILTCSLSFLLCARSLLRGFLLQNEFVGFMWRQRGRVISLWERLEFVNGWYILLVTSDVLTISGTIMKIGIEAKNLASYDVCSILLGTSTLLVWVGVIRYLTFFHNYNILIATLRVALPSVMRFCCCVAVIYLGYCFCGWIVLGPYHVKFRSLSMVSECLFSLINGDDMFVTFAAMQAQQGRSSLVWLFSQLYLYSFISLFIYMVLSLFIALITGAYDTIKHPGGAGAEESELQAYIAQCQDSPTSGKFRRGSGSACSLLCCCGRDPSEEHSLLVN
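TRPML1-DL cells, Tet-induced overnight (~16 h, 37 °C) at 1,500 cells/well, were loaded with Ca8 no-wash dye plus quencher for 45-90 min at room temperature. Compounds were pinned during FDSS kinetic reading; agonist 54-4 at EC80 (4 uM final) then added.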
TRPML1 agonist: activates the human TRPML1 channel | Q9GZU1 | AID 624414 | TRPML1-expressing cells, Ca2+ dye fluorescence, FDSS; host cell line not named in the record; reference of the full effect not given here | activation, % (no concentration beside the values) | 410,000 compounds, 0.12% hits; in the data active = activation above about 50%; inconclusive = about 30% to 50%; inactive = below about 30%; note: 0% is about no effect; the text of the record puts the active cut at 80%
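Tetracycline-induced TRPML1-DL cells are seeded and incubated overnight before loading with a no-wash Ca2+ dye and quencher. Agonist activity is taken from the 110 s fluorescence read following compound pin-transfer on an FDSS, before EC80 54-4 challenge.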
* hit, by the source's call; ? = inconclusive; · = no result given; & = joins results of further samples; [ ] = dose if it differs, or a comment. Hits appear at their usual frequency, and some 2.1% of all compounds hit somewhere here.

SMILES | gsp agonist | Menin MLL FP FL | ClpP mod | gsp antag | TRPML1 blocker | TRPML1 agonist
Cc1ccc(S(=O)(=O)NCc2cccnc2)s1 | 11.2% | -2.0 | -1.5% | 8.7% | 2.3 | -0.7
Cc1ccc(-c2nc(C)c(CCNC(=O)C(=O)Nc3ccc4c(c3)OCCO4)s2)cc1 | · | · | 30.2% | · | -9.5 | 3.3
Nc1nc(SCc2ccccc2Cl)c2ncn(C3OC(CO)C(O)C3O)c2n1 (stereo not drawn) | 24.2% | · | · | 2.9% | 17.7 | 1.2
COC(=O)c1ccccc1NC(=O)CSc1nnc(C(CO)NC(=O)c2ccccc2Cl)n1C (stereo not drawn) | 3.3% | 5.5 | -9.7% | 11.4% | -18.0 | -0.3
CC[C@H](C)/C=C(C)/C=C/C1=CC2=CC(=O)[C@]3(C)OC(=O)[C@@H](C(C)=O)[C@@H]3C2=CO1 | · | ? | -26.3% | -15.9% | · | ·
CCC1=C(OC(=O)N(CC)CC)N2C(=O)OC(=NCCc3c[nH]c4ccccc34)[C@]2(C)[C@H]2C1=CC[C@H]1C(=O)N(CC)C(=O)[C@H]12 | · | -2.7&3.7 | 1.1% | -1.9% | 1.9 | -0.5
COc1ccc(N2C(=O)CC(N(CCc3ccccc3)C(=O)/C=C/C(=O)O)C2=O)cc1 (stereo not drawn) | -25.5% | -1.7 | · | 14.4% | -9.6 | 0.0
Cc1ccc(NC(=O)c2ccc(Cl)c(NC(=O)c3cccs3)c2)cc1 | ? | · | 1.8% | ? | -13.3 | 1.7
C/C(CC(=O)NCCN1CCOCC1)=N\NC(=O)c1ccncc1 | -1.2%[15.4 µM] | 0.8 | 0.7% | -4.1% | -8.6 | -0.6
CCOC(=O)c1nn(-c2ccc(C)c(C)c2)cc1O | -2.7% | 1.1 | -6.2% | 5.0% | 7.4 | 0.4
COc1cccc(-n2ccnc2SCC(=O)Nc2ccccc2)c1 | -10.1% | -1.6 | 0.8% | -10.8% | -8.1 | -0.4
O=C(CN1C(=O)COc2ccc(S(=O)(=O)Nc3ccccc3)cc21)NCc1ccccc1Cl | · | · | -0.5% | · | -12.0 | 0.0
CC(Oc1ccccc1)c1nnc(SCC(=O)NC2CC2)n1C (stereo not drawn) | -14.2%[15.4 µM] | · | · | 12.5% | 11.5 | -0.3
Cn1c(=O)cc(Cl)[nH]c1=O | -3.5% | -7.7 | · | 8.7% | -5.8 | -0.7
CCC1C(=O)NCCN1C(=O)c1cccc(OC2CCN(S(=O)(=O)N(C)C)CC2)c1 (stereo not drawn) | 21.3% | · | -2.8% | -2.3% | -4.9 | -0.4
COc1cc(OC)c(OC)cc1CNCCNC(=O)c1nonc1N | -20.6% | -3.3 | -0.9% | 6.8% | 5.3 | 0.4
CC(=O)Nc1ccc(S(=O)(=O)N2CCC(c3ccncc3)CC2)cc1 | · | · | -4.0% | · | -0.7 | -0.2
COc1ccc(/C(O)=C2/C(=O)C(=O)N(CCN(C)C)C2c2ccc(OC)c(OC)c2)c(C)c1 (stereo not drawn) | -24.3% | 0.7 | 0.9% | -8.1% | 1.2 | 0.6
CCC[C@@H]1C[C@@H](C(=O)N[C@@H](C2O[C@H](SC)[C@H](O)[C@@H](O)[C@H]2O)[C@H](C)Cl)N(C)C1 (stereo partly drawn) | · | 2.7 | 0.4% | 0.4% | 1.2 | 0.2
O=C(COC(=O)c1ccccc1NCCO)NCC1CCCCC1 | -0.9% | · | 4.3% | -8.8% | 4.4 | 0.5
Oc1ccccc1N1CCN(C(=S)Nc2ccc(SC(F)F)cc2)CC1 | -60.7%[15.4 µM] | 7.9 | · | · | -5.7 | -0.4
CCc1cc2c(cc3c(=O)n(CC(=O)N4CCCCC4)nc(CC)n32)s1 | · | · | -5.5% | · | -9.1 | 0.3
Cc1cc(C)cc(NC(=O)Nc2cc(S(=O)(=O)N(C)C)ccc2C)c1 | -25.1%[15.4 µM] | 1.6 | · | -17.8% | -9.9 | 1.9
Cc1cc(C)c2c(c1)-c1c(ssc1=S)C(C)(C)N2C(=O)CN1C(=O)c2ccccc2C1=O | -34.7%[inhibitor] | -1.2 | -3.3% | 3.6% | ? | 66.9*
COc1ccccc1Nc1cc(C(=O)NCc2cccs2)c2ccccc2n1 | · | · | 12.1% | · | -4.6 | 2.2
Cc1ccc(-c2nnn(CC(=O)N(c3ccccc3)C(C(=O)NC3CCCC3)c3ccco3)n2)o1 (stereo not drawn) | 13.8% | 2.0 | 1.0% | -1.2% | -2.5 | 0.3
Brc1ccc(-n2cc(-c3ccccc3)c3c(NN4CCOCC4)ncnc32)cc1 | -18.9% | 0.3 | -2.9% | -7.6% | 0.8 | 0.1
CCOc1ccc(CCNC(=O)Cn2cccc2C(=O)c2ccccc2)cc1OCC | -0.7%[15.4 µM] | 3.2 | 0.6% | 5.2% | -16.1 | 0.1
COc1ccc2oc(C(=O)NCCC(C)C)c(C)c2c1 | -11.7%[15.4 µM] | -0.2 | -3.9% | -3.4% | -20.7 | -0.4
Cc1cc(C(=O)NC2CCN(Cc3ccccc3)CC2)n[nH]1 | 23.5% | -6.3 | -0.1% | 10.2% | 18.7 | 2.6
CN(Cc1cccc([N+](=O)[O-])c1)Cc1cccc2ccccc12 | -16.1% | -0.6 | · | 1.1% | -8.3 | -0.6
CC(C)Nc1nc2c(c(=O)n(C)c(=O)n2C)n1C | ? | 0.6 | -1.1% | 5.6% | -12.8 | -0.6
C=CCNCCOCCSc1ccc(Cl)cc1 | 5.7%[15.4 µM] | 4.3 | -0.5% | 21.2% | -9.6 | -0.4
CCOC(=O)c1ccc(NC(=O)c2ccc(CN3CCOCC3)cc2)cc1 | 7.5% | 4.9 | -1.0% | -17.6% | 14.4 | 0.0
Cc1ccccc1NC(=S)N(C)C1(c2ccccc2Cl)CCCCC1=O (stereo not drawn) | -23.1% | 4.8 | -1.1% | 11.4% | 73.9 | -0.2
Cc1n[nH]c(=O)nc1N1CCN(c2ccccc2)CC1 | -10.5% | 2.5 | -2.8% | -2.4% | 25.5 | -0.7
O=C(CSc1cccc[n+]1[O-])NC(=O)c1ccc(OC(F)F)cc1 | -5.8%[15.4 µM] | 0.4 | · | -1.5% | -2.0 | -1.0
Cc1ccc(-n2ncc(C(=O)NCc3ccccc3)c2C2CCN(C(=O)OC(C)(C)C)CC2)cc1 | · | · | 0.1% | · | 17.5 | 0.2
Cn1nnnc1SCc1ccc(C(=O)Nc2ccc(Br)cc2)cc1 | 3.6% | 3.8 | -1.4% | -6.7% | 29.5 | -0.1
Cn1c(=O)[nH]c(=O)c2c1nc(Br)n2CC(O)c1ccccc1 (stereo not drawn) | -20.8% | -0.3 | -2.3% | -0.2% | 5.6 | -0.3
CCOc1ccc(-n2c(Cc3cc(=O)[nH]c(=O)[nH]3)nnc2SC(C)C)cc1 | 0.0% | 4.0 | -3.5% | -4.3% | -1.2 | -0.7
O=C(O)CCCCCCCCCC[n+]1ccccc1 | -55.6%[inhibitor] | 0.6 | 1.2% | 9.2% | · | ·
CC(C)CC1C(C#N)=C(N)Oc2n[nH]c(-c3cccs3)c21 (stereo not drawn) | 1.1% | 2.5 | -1.1% | -2.3% | -7.9 | 0.7
N=C1C(c2ccccc2)=C(O)CN1NC(=O)c1ccccc1 | 0.3%[15.4 µM] | 0.2 | · | 8.0% | 7.4 | 0.0
CC1(C)OC(=O)N(CCC(=O)Nc2cccc(F)c2)C1(C)O (stereo not drawn) | ? | -0.8 | · | 7.4% | -6.3 | -0.2
COc1cccc(CN(C)C(=O)CCC(=O)c2cc(Br)ccc2OC)c1 | 11.8% | · | -0.6% | -14.0% | 8.6 | 1.4
CSCCC(NC(=O)c1ccccc1C)C(=O)O (stereo not drawn) | ? | -0.3 | · | 4.0% | -23.7 | -0.6
CN(CC(=O)Nc1cccc(F)c1)C(=O)c1cc([N+](=O)[O-])ccc1N1CCCCC1 | -3.8%[15.4 µM] | · | 2.4% | -9.5% | 17.5 | 0.5
CC(C)(C)c1ccc(-c2ccc3c(c2)S(=O)(=O)c2ccccc2C3=O)cc1 | · | · | 0.0% | -12.0% | 33.4 | 0.2
CN(C)CCC1c2ccc(Cl)cc2CCc2cccnc21 (stereo not drawn) (tested in a mixture with another compound) | 26.0% | -20.9 | · | 7.9% | 14.1 | 0.7
(list continues)
SMILES | gsp agonist | Menin MLL FP FL | ClpP mod | gsp antag | TRPML1 blocker | TRPML1 agonist
CC1(C(=O)O)COC(c2ccc(Cl)cc2)OC1 (stereo not drawn) | 2.4%[15.4 µM] | 1.6 | · | 8.6% | 15.3 | 1.0
C=C(C)Cn1c(=O)c2c(nc3n2CCCN3Cc2ccccc2)n(C)c1=O | ? | 1.0 | -0.4% | -8.6% | 4.4 | -0.9
COCCn1c(SC(C)C(=O)NC2CCCCC2C)nc2ccccc2c1=O (stereo not drawn) | -5.1%[15.4 µM] | · | -2.4% | 5.3% | 38.1 | 0.6
CCOC(=O)C1CCC(C(=O)OCC)N1c1ccc(C=O)cc1 (stereo not drawn) | -23.0% | · | ? | · | 9.4 | 1.4
O=C(COC(=O)/C=C/c1cccs1)Nc1cccc(S(=O)(=O)N2CCOCC2)c1 | 10.7%[15.4 µM] | -0.9 | 1.3% | -9.2% | 5.1 | 0.3
c1ccc(Nc2nc(N3CCCCC3)nc(N3CCCCC3)n2)cc1 | 13.0% | 4.1 | -1.7% | 5.0% | 1.7 | 0.0
C/C(=C\c1ccccc1F)C(=O)c1c(C)cc(C)[nH]c1=O | -9.3%[15.4 µM] | -3.2 | ? | 7.2% | -6.4 | -1.2
O=C(N/N=C/c1cc2c(cc1[N+](=O)[O-])OCO2)c1ccc2c(c1)OCO2 | 19.9%[15.4 µM] | -0.4 | · | -25.9% | 5.5 | 0.5
Cc1ccc(N=C2NC(=O)/C(=C/c3cccnc3)S2)c(C)c1 | -23.3%[15.4 µM] | 2.4 | -1.6% | -3.7% | 4.9 | 1.2
O=S(=O)(Nc1ccc(N2CCOCC2)cc1)c1ccc(F)cc1 | 8.8%[15.4 µM] | -0.3 | · | -2.1% | 4.1 | 0.6
CC1=C(c2ccc(C)c(C)c2)S(=O)(=O)N=C1N1CCC(C(=O)NCc2ccc(Cl)cc2)CC1 | · | · | 1.9% | · | 36.7 | 0.4
CC(=O)Nc1sc(C)c(C)c1C(=O)OCC(=O)NCc1ccc(Cl)cc1 | 6.8% | · | -1.0% | 5.5% | 0.5 | 0.0
Cc1noc(C)c1C(=O)OCC(=O)Nc1ccccc1Oc1ccccc1 | 18.6% | 4.3 | ? | 0.5% | 12.8 | -0.7
Cc1cc(OC(C)C(=O)Nc2sc3c(c2C(N)=O)CCCC3)ccc1Cl (stereo not drawn) | · | · | -2.8% | · | -5.2 | -0.2
